Screens as filed in PubChem BioAssay.
KCNQ2 pot: KCNQ2 (rat) channel potentiation; O88943; 0.54% of 310,000 active; B-score at 10 µM; CHO-K1 KCNQ2, FluxOR thallium flux fluorescence; active compounds read high;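 active = fluorescence ratio B-score at least 3 SD of library B-scores, with initial fluorescence B-score within 3 SD, cut at about 5.3 in these data; same plate scores as AID 2156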;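 also: B-score of peak minus minimum over baseline fluorescence ratio after K+ and Tl+ stimulus; positive B-score means potentiation of KCNQ2 with more thallium influx and brighter signal; only the inactives scoring about 0 or higher are listed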
Target sequence (O88943 whole entry, looked up): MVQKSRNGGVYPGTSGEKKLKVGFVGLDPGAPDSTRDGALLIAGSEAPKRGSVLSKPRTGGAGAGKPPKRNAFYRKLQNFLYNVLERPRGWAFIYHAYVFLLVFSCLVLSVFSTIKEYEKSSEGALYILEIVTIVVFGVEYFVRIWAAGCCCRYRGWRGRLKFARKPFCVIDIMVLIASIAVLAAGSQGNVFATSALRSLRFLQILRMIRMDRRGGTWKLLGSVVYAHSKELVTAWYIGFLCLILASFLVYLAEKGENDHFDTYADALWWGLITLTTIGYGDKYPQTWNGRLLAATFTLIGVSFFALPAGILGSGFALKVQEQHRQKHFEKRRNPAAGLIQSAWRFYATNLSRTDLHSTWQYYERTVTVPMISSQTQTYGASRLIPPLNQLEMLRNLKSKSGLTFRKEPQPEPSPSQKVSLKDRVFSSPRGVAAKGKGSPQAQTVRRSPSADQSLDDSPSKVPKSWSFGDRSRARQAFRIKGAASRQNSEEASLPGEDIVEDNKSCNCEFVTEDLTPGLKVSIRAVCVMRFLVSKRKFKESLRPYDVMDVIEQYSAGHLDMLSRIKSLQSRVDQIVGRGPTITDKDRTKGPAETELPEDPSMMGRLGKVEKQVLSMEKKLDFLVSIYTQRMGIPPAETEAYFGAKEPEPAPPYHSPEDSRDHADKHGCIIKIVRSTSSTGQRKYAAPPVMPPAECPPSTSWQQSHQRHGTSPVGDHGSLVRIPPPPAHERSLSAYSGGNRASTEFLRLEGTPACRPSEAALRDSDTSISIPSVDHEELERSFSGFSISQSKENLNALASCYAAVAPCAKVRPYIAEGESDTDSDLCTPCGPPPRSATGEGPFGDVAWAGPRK
KCNQ2 pot baseline: also measured in KCNQ2 pot; calls as there; B-score; compound at 10 µM; measured here: initial fluorescence intensity artifact check;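 brightness before thallium and not channel activity; 0 = typical well and far values either way flag optical interference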
Numbers without * were called inactive. An excerpt, so the mix of outcomes need not match the whole.

KCNQ2 pot baseline	KCNQ2 pot	molecule
0	0.99	Cc1occc1C(=O)N/N=C/c1ccc(OCc2ccccc2)cc1
-1.37*	5.87*	Oc1c(N=Nc2ccccn2)ccc2ccccc12
-1.73	0.81	Cc1cccc(NC(=S)N2CCC(O)CC2)c1C
1.93	1.2	CCC(C)NC(=O)c1cc(Cl)ccc1OC (stereo not given)
-0.63	0.02	CCC(C)[C@H]1CNCCN1CC1(c2ccccc2)CC1 (stereo not given in full)
1.58	1.39	Cc1oc(/N=C/c2ccccc2O)c(C#N)c1C
-2.11	0.17	CCn1c(=O)cc(SCC(=O)N2CCC(C)CC2)c2ccccc21
0.41	0.3	Cc1nn(CC(=O)NCc2ccc(C(=O)O)cc2)c(C)c1[N+](=O)[O-]
-1.14	0.74	Oc1ccc(Nc2nc(-c3cccs3)cs2)cc1
0.25	4.42	COc1cccc(-c2csc(N3CCN(C(=O)Nc4ccccc4Cl)CC3)n2)c1
-2.44	0.35	O=C(Nc1ccccc1C(=O)Nc1ccccc1)c1ccco1
0.15	0.92	CS(=O)(=O)c1ccc(Cl)c(NC(=O)COC(=O)c2ccc(F)cc2Cl)c1
0.65	0.9	Cc1c(NC(=O)C2CCCCN2S(=O)(=O)c2ccc(Cl)cc2)c(=O)n(-c2ccccc2)n1C (stereo not given)
-0.05	1.09	COc1ccc(NC(=O)c2onc(C)c2Cl)cc1
-1.48	2.85	COCCNc1c(-c2cc3ccc(C)c(C)c3[nH]c2=O)nc2ccccn12

Reformatted as labelled records: entries from further up
> Cc1oc(/N=C/c2ccccc2O)c(C#N)c1C
  KCNQ2 pot baseline = 1.58; KCNQ2 pot = 1.39
> CCn1c(=O)cc(SCC(=O)N2CCC(C)CC2)c2ccccc21
  KCNQ2 pot baseline = -2.11; KCNQ2 pot = 0.17
> Cc1nn(CC(=O)NCc2ccc(C(=O)O)cc2)c(C)c1[N+](=O)[O-]
  KCNQ2 pot baseline = 0.41; KCNQ2 pot = 0.3
> Oc1ccc(Nc2nc(-c3cccs3)cs2)cc1
  KCNQ2 pot baseline = -1.14; KCNQ2 pot = 0.74

Going on with the list:
KCNQ2 pot baseline	KCNQ2 pot	molecule
0.81	0.48	O=C(O)CSc1nc(-c2cccs2)cc(C(F)(F)F)n1
0.67	1.25	CCN(/C=N/c1sc2c(c1C#N)CC(C)(C)NC2(C)C)CC
-0.25	0.27	CCN1/C(=C2/SC(=S)N(NC(C)=O)C2=O)Sc2ccc(OC)cc21
-1.28	3.47	S=c1nc2ccccc2c2nc(-c3cccnc3)[nH]n12
-0.01	0.54	Cc1cc(C)n2c(SCC(=O)N(C)C3CCCCC3)nnc2n1
-1.45	0.08	COc1ccc(CN(C)C(C)C(=O)Nc2ccc(S(=O)(=O)N3CCCC3)cc2)c(OC)c1OC (stereo not given)
-1.41	0.42	CCN(CCNS(=O)(=O)c1ccc2[nH]c(=O)sc2c1)c1ccccc1
0.04	1.47	CCOc1cc(CNC(CC)CO)ccc1OCC(=O)Nc1cccc(C(F)(F)F)c1 (stereo not given)
0.24	1.13	CC1C(=O)Nc2ccccc2N1C(=O)c1c(F)cccc1F (stereo not given)
-0.05	1.5	Cc1ccc(S(=O)(=O)N2CCCC(C(=O)NCCC(C)C)C2)cc1 (stereo not given)
-0.63	2.8	CC(NC(=O)c1cccc(Br)c1)c1ccccc1 (stereo not given)
-0.71	0.88	COc1ccc(S(=O)(=O)N2CCC(C(=O)N3CCCCC3)CC2)cc1Cl
-1.71	0.92	C/C(CCS(=O)(=O)c1ccccc1)=N/O
-0.04	0.73	COc1ccc(C(=O)Nc2ccccc2C(=O)Nc2ccccn2)cc1
-0.85	1.55	CC(=O)c1nc2ccccc2n1S(=O)(=O)c1ccc(Cl)cc1
0.4	0.31	COc1ccccc1CNC(=O)c1cc2c(=O)[nH]c3ccccc3c2n1C
0	0.9	Cc1ccc(S(=O)(=O)c2c(N)n(/N=C/c3ccco3)c3nc4ccccc4nc23)cc1C
0.03	0.13	CC1=NCC(C)c2c1[nH]c1ccccc21 (stereo not given)
0.64	0.34	O=C(CCN1C(=O)C2C3C=CC(C4CC34)C2C1=O)OCC(=O)c1ccccc1 (stereo not given)
0.01	0.01	CCC(C(=O)N1CCC(N2CCCCC2)CC1)n1nc(C)c2sc3ccccc3c2c1=O (stereo not given)
-1.3	0.81	NC(=S)NN=C1c2cc(S(=O)(=O)N3CCOCC3)ccc2-c2ccc(S(=O)(=O)N3CCOCC3)cc21
-0.56	0.74	Cc1cccc(OCC(O)Cn2c(-n3nc(C)cc3C)nc3c2c(=O)[nH]c(=O)n3C)c1 (stereo not given)
-0.07	0.84	COc1ccc(CNC(=O)C2CCC(CNc3c(N4CCCCC4)c(=O)c3=O)CC2)cc1 (stereo not given)
-0.54	0.63	CCN(CC)CCNC(=O)NC(=O)c1ccc(Cl)cc1
0.02	1.51	Cc1ccc(N2CCN(S(=O)(=O)c3ccc(F)cc3)CC2)c(C)c1
-0.28	2.59	COc1cc(/C=N/NC(=O)c2ccc(O)cc2)ccc1Oc1ccc([N+](=O)[O-])cn1
-0.48	0.06	CC(C)NS(=O)(=O)c1ccc(OCC(=O)NCC2CCCO2)c(Cl)c1 (stereo not given)
0.47	1.69	C/C(=N/NC(=O)c1ccc(Br)o1)c1ccc(C)o1
0.21	1.13	COC(=O)c1[nH]c2cccc(OC)c2c1NC(=O)CCN1CCN(c2ccccc2F)CC1
0.64	0.07	O=C(O)CCC(=O)N1N=C(c2ccco2)CC1c1cccs1 (stereo not given)
-0.02	0.03	COc1cc(/C=C/C(=O)Nc2ccc(C(C)=O)cc2)cc(OC)c1OC
-0.04	0.35	COc1cccc(Nc2nc(=O)[nH]nc2C)c1
-0.78	0.37	COc1ccc(N2C(=O)C3ON(C4SC(=S)N(C)C4(C)C)C(c4ccc(Cl)cc4)C3C2=O)cc1 (stereo not given)
-0.03	0.54	CS(=O)(=O)c1ccc2nc(NC(=O)c3ccccc3Br)sc2c1
1.02	0.03	CCC(O)(C#CCN1CCCCC1)CC
0.86	0.57	Cc1ccc(-n2nc3c(c2NC(=O)c2ccc(F)c(F)c2)CS(=O)(=O)C3)cc1
-0.55	1.47	COc1ccc(C)cc1NC(=O)COC(C)=O
-0.08	0.96	COCCn1c(-c2cc(OC)c(OC)c(OC)c2)nc2oc3ccccc3c(=O)c2c1=O
0.89	0.95	Cc1ccn(S(=O)(=O)c2ccc3oc(=O)ccc3c2)n1
0.15	0.74	CCN1CCN(S(=O)(=O)c2ccc(S(=O)(=O)NC3CC3)cc2)CC1
-0.19	0.2	COc1ccc(N(CC(=O)N/N=C/c2ccco2)S(=O)(=O)c2ccccc2)cc1Cl
-0.92	1.94	COc1ccc(OCC(N)=O)cc1
0.87	0.11	COc1ccc(CNCC(=O)Nc2cc(C)nn2-c2nc(C)cc(C)n2)cc1OC
0.14	1.22	CN(CC(=O)Nc1ccccc1Br)C(=O)CCC1CCCC1
0.88	1.17	CCC1CCc2c(n(C)c3ccccc3c2=O)O1 (stereo not given)
-0.96	0.14	CC(=O)NCc1cn2c(C)csc2n1
2.29	0.04	CCOCCCn1c(=S)[nH]c2cc(C(=O)N3CCC(C(N)=O)(N4CCCCC4)CC3)ccc2c1=O
0.32	0.06	COc1ccccc1N1CCN(C2CCCN(C(=O)CCc3c(C)noc3C)C2)CC1 (stereo not given)
-1	0.21	COCCn1c(=O)[nH]c2cc(C(=O)N3CCN(c4cccc(Cl)c4)CC3)ccc2c1=O
-2.28	0.32	Cc1nc(N2CCCC2C(=O)O)c2oc3ccccc3c2n1 (stereo not given)
-0.4	0.92	CCN(CC)c1ccc(-c2nnc(SCC(=O)N(CCOC)c3c(N)n(CC(C)C)c(=O)[nH]c3=O)o2)cc1
-1.15	1.33	Cc1cccc2c(CCNC(=O)c3ccc([N+](=O)[O-])cc3)c[nH]c12
-1.12	0.03	CN1CCOC(=O)/C1=N/Nc1cc(Cl)ccc1Cl
-0.31	2.2	O=C(c1cc(-c2cccs2)on1)N1CCN(c2ccc(F)cc2)CC1
-1.67	3.09	NS(=O)(=O)c1cccc(NC(=S)NC(=O)C23CC4CC(CC(C4)C2)C3)c1
-0.19	0.12	COc1ccccc1NC(=O)c1sc2ncn(Cc3cccc(C)c3)c(=O)c2c1C
0.49	0.31	CC1=NN(c2ccccc2)C(=O)C1=C(C)C
0.78	0.2	COC(=O)C1=C(C)N(C)C(C)=C(C(=O)OC)C1c1ccncc1
-0.11	0.03	O=c1cc(O)nc(SCc2ccccc2Cl)[nH]1
-1.4	0.09	CCC(C)c1ccc(NC(=S)N2CCN(C(=O)C3CCCO3)CC2)cc1 (stereo not given)

Additional records.
KCNQ2 pot baseline	KCNQ2 pot	molecule
0.6	1.2	Cc1ccc2nc(-c3cccc(S(=O)(=O)N(C)C)c3)cn2c1
1.38	0.43	CCOc1ccccc1NC(=S)N(CCN(C)C)C(C)c1ccncc1 (stereo not given)
1	0.25	O=[N+]([O-])c1ccc2nc(C3CCCCC3)[nH]c2c1
0.46	1.65	CSc1ccc(CCNC(=O)CCc2nnc3ccc(N4CCCC4)nn23)cc1
-1.77	0.82	CC(=O)Nc1cccc(/C(C)=N/NC(=O)c2cccc(S(=O)(=O)N3CCOCC3)c2)c1
0.41	1.85	CCc1cc2c(SCc3nc4sc(C(C)=O)c(C)c4c(=O)[nH]3)ncnc2s1
0.61	0.36	CCOC(=O)c1ccc(N2CSC3=C(C#N)C(c4cccs4)CC(=O)N3C2)cc1 (stereo not given)
0.91	0.16	Cc1ccc(NC(=O)C2CCCN(S(=O)(=O)c3cccnc3)C2)cc1C (stereo not given)
0.2	0.92	O=c1[nH]c(C2CCN(S(=O)(=O)c3ccc4c(c3)OCCO4)CC2)nc2c1nnn2Cc1cccc(F)c1
0.89	0.02	Cc1ccccc1NC(=O)c1ccc(S(=O)(=O)N(C)C)cc1
0.18	1.84	O=C(Cn1nnc(-c2cccc(C(F)(F)F)c2)n1)NNS(=O)(=O)c1cccc(C(F)(F)F)c1
0.31	0.54	Cc1ccc(NC(=O)c2ccc([N+](=O)[O-])o2)c(C)c1
-0.63	1.85	Cc1c(C(=O)N2CCN(c3ccc(F)cc3)CC2)sc2nc(-c3ccccc3)cn12
-0.45	0.73	O=C(c1ccc(F)cc1)C1CCN(C(=S)Nc2ccccc2)CC1
-0.7	0.55	Cc1cc(C)cc(NC(=O)c2ccccc2NC(=O)CCC(=O)O)c1

Next section; the last 6 above are carried over.
KCNQ2 pot baseline	KCNQ2 pot	molecule
0.89	0.02	Cc1ccccc1NC(=O)c1ccc(S(=O)(=O)N(C)C)cc1
0.18	1.84	O=C(Cn1nnc(-c2cccc(C(F)(F)F)c2)n1)NNS(=O)(=O)c1cccc(C(F)(F)F)c1
0.31	0.54	Cc1ccc(NC(=O)c2ccc([N+](=O)[O-])o2)c(C)c1
-0.63	1.85	Cc1c(C(=O)N2CCN(c3ccc(F)cc3)CC2)sc2nc(-c3ccccc3)cn12
-0.45	0.73	O=C(c1ccc(F)cc1)C1CCN(C(=S)Nc2ccccc2)CC1
-0.7	0.55	Cc1cc(C)cc(NC(=O)c2ccccc2NC(=O)CCC(=O)O)c1
-1.95	0.61	COc1ccc(C(=O)NCC(=O)N/N=C/c2c(C)[nH]c3ccccc23)cc1
-0.17	0.24	Cc1sc2ncnc(Sc3ccccc3C(=O)Nc3ccccc3Cl)c2c1C
0.91	0.93	Cc1cc(C(F)(F)F)nn1CC(=O)NCc1ccco1
0.11	0.4	Cn1nnnc1SC1CC(=O)N(c2ccccc2)C1=O (stereo not given)
-0.67	1.64	Cc1cc(OCC(=O)NCCO)cc(C)c1Cl
-0.74	1.34	C=CCc1ccc(O)c(-c2cc(CC=C)ccc2O)c1
0.76	0.34	CCOc1ccccc1NC(=O)CC1NCCNC1=O (stereo not given)
-0.15	1.04	CCOc1ccc(Cl)cc1/C=C1/C(=O)ON=C1C
-0.02	0.77	Cc1ccc(S(=O)(=O)N2CCN(c3ccccc3)CC2)cc1C(N)=O
-1.68	1.64	CCOc1cc(CNCCSc2nnnn2C)cc(Br)c1OCc1ccc(F)cc1
-0.02	1.2	CCOC(=O)CCSc1nc(C)c2cc(OC)ccc2n1
-1.03	0.01	CCN1CCc2c(C#N)c(NCc3ccccc3)nc(NCCO)c2C1
-1.16	0.07	COC(=O)N1CC(c2ccccc2)CC1=O (stereo not given)
0.04	1.03	Cc1cccc(N2CCN(C(=O)CCS(=O)(=O)c3ccc4c(c3)NC(=O)CO4)CC2)c1C
0.4	2.28	Nc1nc(SCC(=O)c2ccc(Oc3ccccc3)cc2)n[nH]1
-0.21	1.55	O=S(=O)(c1ccc(Cl)cc1)N1CCN=C1SCc1cccnc1
-0.33	0.7	CCOc1cc2[nH]c(=O)n(CC3CCC(C(=O)NCCCOC)CC3)c(=O)c2cc1OCC (stereo not given)
-1.03	1.22	O=C(c1cnccn1)N(c1ccccc1)C1(C(=O)NC2CCCC2)CCCCC1
0.08	2.1	COCCNC(=O)c1cccc(OC2CCN(Cc3ccccc3C)CC2)c1
-1.38	1.98	CN(C)c1cccc(C(=O)NCC(c2ccco2)N(C)C)c1 (stereo not given)
-1.35	1.1	Cc1cccc(-n2[nH]c3c4c(ccc3c2=O)C(=O)c2ccccc2C4=O)c1
-1.54	0.05	COc1ccc2oc3cc(C)[n+]([O-])c(-c4ccc(Cl)cc4)c3c2c1
-1.27	0.74	Cc1nn(C)c(C)c1S(=O)(=O)N(CC(=O)Nc1nccs1)c1ccc(C(C)C)cc1
-0.03	0.37	COCCNC(=O)c1ccc(N2CCC3(CC2)OCCO3)c([N+](=O)[O-])c1
-1.44	0.35	Cc1c(C(=O)N2CCc3ccccc32)cnn1C

Reprinted from the results shown, 2 compounds:
KCNQ2 pot baseline	KCNQ2 pot	molecule
-0.21	1.55	O=S(=O)(c1ccc(Cl)cc1)N1CCN=C1SCc1cccnc1
-0.33	0.7	CCOc1cc2[nH]c(=O)n(CC3CCC(C(=O)NCCCOC)CC3)c(=O)c2cc1OCC (stereo not given)
